# AmpC inh no det: AmpC beta-lactamase inhibition, detergent-free assay | P00811 | AmpC nitrocefin hydrolysis, absorbance 480 nm, no detergent; potencies from a single point are estimates | Potency, µM (series often up to 28.7 µM), inactives show at the top dose activity change, negative = inhibition | 71,000 tested, 1.8% active; active = falling curve, for most hits resting on a single point; inconclusive = weak or doubtful change; inactive = flat or rising curve; note: % of control where 0% means no effect; about half of the hits show no inhibition at the top dose; a quarter of the inactives give rising signals
# Target sequence (P00811 whole entry, looked up): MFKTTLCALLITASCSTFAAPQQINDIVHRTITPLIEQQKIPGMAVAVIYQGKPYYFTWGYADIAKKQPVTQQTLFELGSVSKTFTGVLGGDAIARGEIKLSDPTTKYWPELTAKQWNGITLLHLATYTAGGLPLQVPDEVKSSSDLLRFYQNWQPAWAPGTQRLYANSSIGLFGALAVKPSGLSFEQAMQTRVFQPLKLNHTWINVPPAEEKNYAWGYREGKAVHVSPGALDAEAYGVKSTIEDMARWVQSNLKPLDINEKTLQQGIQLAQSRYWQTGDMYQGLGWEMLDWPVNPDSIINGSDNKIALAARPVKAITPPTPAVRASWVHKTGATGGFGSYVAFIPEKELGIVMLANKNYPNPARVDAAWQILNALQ
#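 Enzyme, pH 7.0 phosphate. Compound titrations were pre-incubated with AmpC for 15 min at room temperature before nitrocefin (stock 800 uM) addition; product formation was recorded at 480 nm every 20 s for 4 min.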
# Numbers without * were called inactive; ? = inconclusive; & = joins results of further samples; [ ] = dose if it differs, or a comment. Potency is the fitted concentration of half-maximal effect.
SMILES,AmpC inh no det
CC(C)Oc1cccc(C(=O)Nc2ccc(NC(=O)c3ccco3)cc2)c1,-21%
O=C1OCCC1Sc1nnc(-c2ccc(Br)cc2)o1 (centres undefined),9%
COc1ccc2c(c1OC)CN1CCc3cc4c(cc3[C@H]1C2)OCO4,31%[12.8 µM]
N#Cc1ccccc1Sc1ccccc1C(=O)OCC(=O)N1CCN(C(=O)c2ccco2)CC1,119%
CC(=O)c1cc(-c2ccccc2)n(CC(=O)N2CCN(C3CCCC3)CC2)c1C,115%
O=c1oc2ccc(Br)cc2cc1-c1nc2ccccc2o1,?
Cn1c(/C=N/n2cnnc2)nc2ccccc21,6%
O=C1C(=O)N(CCN2CCOCC2)C(c2ccncc2)/C1=C(/O)c1ccc2c(c1)OCO2 (centres undefined),0%
O=S(=O)(Nc1ccc2c(c1)nc1n2CCN(Cc2ccccc2)C1)c1ccccc1,-21%
Cc1nc2cc(-c3cccc(F)c3)nn2c(C)c1CCC(=O)N1CCC2(CC1)OCCO2,147%
CCn1c(SCC(=O)c2[nH]c(C)c(C(C)=O)c2C)nnc1-c1cccs1,60%
CCOC(=O)N1CCN(C(=O)CSc2nnc(-c3ccccc3OC)o2)CC1,50%
Cc1cc(C)nc(-n2nc(C)c(Sc3ccc(F)cc3)c2N)n1,107%
Cc1ccccc1-n1c(SCC(=O)N2CCOCC2)nc(O)cc1=O,-3%
Cc1cc(C(F)(F)F)nc(NCc2ccc(F)cc2)n1,-2%
CCn1nc(C(=O)O)c(=O)c2cc3c(cc21)OCO3,-3%
O=C(NCCCN1CCOCC1)c1ccc(Br)cc1,-4%
COC(=O)c1sc2nc(-c3ccccc3)nc(N3CCN(C)CC3)c2c1C,127%
Cc1ccc(S(=O)(=O)NCCC(=O)NCc2ccccc2)cc1,-6%
COC(=O)[C@@]1(Cc2ccccc2)C=C[C@@H](C)N1C(=O)c1ccccc1,44%
Cc1nnc(SCCOC(N)=O)n1C,0%
CC1CCC(NC(=O)c2ccc(N3CCCC3=O)cc2)CC1 (centres undefined),19%
CCC(=O)N1CCNC(=O)C1CC(=O)Nc1ccc(C)c(Cl)c1 (centres undefined),12%
COc1cc(OC)cc(-c2nnc(SCC(=O)N3CCOCC3)o2)c1,58%
CNc1ncncc1-c1c(C)noc1C,2%
Cc1cc(S(=O)(=O)Nc2cccc(O)c2)c(C)s1,-17%
CS(=O)(=O)Nc1cccc(-c2nc(Nc3ccccc3)c3ccccc3n2)c1,3%
CCSc1nnc(NC(=O)c2c(-c3ccccc3Cl)noc2C)s1,-18%
c1cncc(-c2nc(Oc3ccc(-c4nnco4)cc3)c3c4c(sc3n2)CCCC4)c1,43%
O=C(NCCC1=CCCCC1)c1ccc(CN2CCOCC2)cc1,45%
CS(=O)(=O)N(CC(=O)N1CCCC1)c1ccc(OCc2ccccc2)cc1,81%
Cc1ccc(C)c(C(=O)CC2(O)C(=O)Nc3ccccc32)c1 (centres undefined),-1%
Clc1ccccc1Cn1nnc2c(NCCN3CCOCC3)ncnc21,70%
Nc1nc2n(n1)C(c1ccco1)CC(c1ccc(Cl)c(Cl)c1)N2 (centres undefined),68%
Cc1ccc2c(c1)C1C=CCC1C(C(=O)O)N2 (centres undefined),-2%
Cn1nc(-c2ccc(Cl)cc2)c2cc(C(=O)NCCCN3CCCC3)sc21,4µM*[single pt active]

# A different layout for part of the listing above:
smiles | AmpC inh no det
Cc1ccc(S(=O)(=O)NCCC(=O)NCc2ccccc2)cc1 | -6%
COC(=O)[C@@]1(Cc2ccccc2)C=C[C@@H](C)N1C(=O)c1ccccc1 | 44%
Cc1nnc(SCCOC(N)=O)n1C | 0%
CC1CCC(NC(=O)c2ccc(N3CCCC3=O)cc2)CC1 (centres undefined) | 19%
CCC(=O)N1CCNC(=O)C1CC(=O)Nc1ccc(C)c(Cl)c1 (centres undefined) | 12%
COc1cc(OC)cc(-c2nnc(SCC(=O)N3CCOCC3)o2)c1 | 58%
CNc1ncncc1-c1c(C)noc1C | 2%
Cc1cc(S(=O)(=O)Nc2cccc(O)c2)c(C)s1 | -17%
CS(=O)(=O)Nc1cccc(-c2nc(Nc3ccccc3)c3ccccc3n2)c1 | 3%
CCSc1nnc(NC(=O)c2c(-c3ccccc3Cl)noc2C)s1 | -18%
c1cncc(-c2nc(Oc3ccc(-c4nnco4)cc3)c3c4c(sc3n2)CCCC4)c1 | 43%
O=C(NCCC1=CCCCC1)c1ccc(CN2CCOCC2)cc1 | 45%
CS(=O)(=O)N(CC(=O)N1CCCC1)c1ccc(OCc2ccccc2)cc1 | 81%
Cc1ccc(C)c(C(=O)CC2(O)C(=O)Nc3ccccc32)c1 (centres undefined) | -1%
Clc1ccccc1Cn1nnc2c(NCCN3CCOCC3)ncnc21 | 70%
Nc1nc2n(n1)C(c1ccco1)CC(c1ccc(Cl)c(Cl)c1)N2 (centres undefined) | 68%
Cc1ccc2c(c1)C1C=CCC1C(C(=O)O)N2 (centres undefined) | -2%

# New compounds follow.
SMILES,AmpC inh no det
CCOc1ccc(NC(=O)C2CCCN(S(=O)(=O)c3c(C)n[nH]c3C)C2)cc1 (centres undefined),?
CCOC(=O)N1CCC(NC(=O)CNS(=O)(=O)c2ccc(Br)s2)CC1,2%
O=C(CCN1CCCCC1)N1CCc2c([nH]c3ccccc23)[C@H]1c1cccnc1,11%[5.75 µM]
CCOc1ccc(Nc2nc(CC(=O)OC)cc(=O)[nH]2)cc1,-9%
COc1ccc(-c2nnc(SCC(N)=O)n2N)cc1,-3%
Cc1ccc2c(c1)NC(=O)C(CC(=O)NCCCN1CCc3ccccc3C1)O2 (centres undefined),23%
Brc1ccc(Oc2nsnc2N2CCOCC2)cc1,20%
NC1=C(c2ccc(F)cc2)C(=O)CS1,-4%
COc1ccc(S(=O)(=O)N2CCCN(CC(=O)Nc3ccc4c(c3)OCO4)CC2)cc1,53%
COC(=O)c1ccc(C(/C=C/[C@@H](C)C(=O)NCCN2CCCC2)NC(=O)OCc2ccccc2)cc1 (some centres undefined),122%
CCN(CC)S(=O)(=O)c1ccc(O)c(C(=O)OCC(=O)N(C)Cc2ccccc2)c1,21%
Cc1ccc(-c2ccc(=O)n(CCC(=O)NCCN3CCCCC3C)n2)cc1 (centres undefined),10%
CCc1ccc(N2CC(C(=O)OCC(=O)NC3CCS(=O)(=O)C3)CC2=O)cc1 (centres undefined),8%
O=c1ccc2[nH]cc(C3=CCNCC3)c2[nH]1,37%
CC1CCN(CC(=O)N2c3ccccc3Sc3cc4ccccc4cc32)CC1,11%[5.75 µM]
CCOC(=O)c1cccc(NC(=O)CSc2nnc(C3CCCCC3)n2C)c1,57%
CCNc1nc2c(c(=O)[nH]c(=O)n2C)n1Cc1ccc(F)cc1,1%
Cc1nc(NCCNC(=O)c2ccco2)c2c(C)c(C)sc2n1,6%
CC(=O)c1ccc(OCC(O)CN2CCC(C)CC2)cc1 (centres undefined),4µM*[single pt active]
COc1ccc2[nH]c(=O)c(CN(C)C(=O)COc3ccccc3)cc2c1,1%
CCOC(=O)c1c(NC(=O)CSc2nnnn2CC)sc(C)c1C,77%
Cc1ccc2c(c1)N(CCC(=O)NCc1ccc3c(c1)OCO3)C(=O)CO2,9%
COCCn1c(=O)c(C)nc2cnc(Oc3ccc(OC)cc3)nc21,53%
CC1CN(c2c3c(nc4ncnn24)CCCC3)CC(C)O1 (centres undefined),-4%
C[C@@H](Nc1nc(-c2ccccc2)nc2c1oc1ccccc12)C(=O)O,-13%
CCCc1cc(-c2[nH]ncc2-c2ccc(C(=O)OCC)o2)c(O)cc1O,10%
CCOC(=O)c1[nH]c(C)c(C(=O)Nc2ccc(C)c(Cl)c2)c1C,43%
Cc1noc(C)c1C(=O)NCCC1=CCCCC1,4%
Nc1nc2n(n1)C(c1ccco1)CC(c1ccccc1)N2 (centres undefined),-16%
CCOc1ccc2[nH]c(C)c(CN3CCN(CC)CC3)c(=O)c2c1,-14%
CCOCCCNc1ncc2c(n1)CC(c1ccc(C)cc1)CC2=O (centres undefined),62%
COc1ccc(-c2cc(C(=O)NCCN3CCOCC3)c3ccccc3n2)c(OC)c1,97%
CC1CCCCC1N1CCN(C(=O)c2cccc(F)c2)CC1 (centres undefined),10%
CC[C@]1([C@H]2O[C@@H]([C@@H]3O[C@](O)(CO)[C@@H](C)C[C@H]3C)C[C@H]2C)CC[C@@H]([C@]2(C)CC[C@@]3(C[C@@H](O)[C@@H](C)[C@@H]([C@H](C)[C@H](OC)[C@H](C)C(=O)O)O3)O2)O1,5%[12.8 µM]
CN1CCCC[C@@H]1CCN1c2ccccc2Sc2ccc(S(C)=O)cc21 (some centres undefined),-2%[5.75 µM]
CN1CCCC2(CCN(S(=O)(=O)c3ccccc3)CC2)C1,8%
CCOC(=O)/C(C#N)=C1/C=CN(Cc2ccccc2)C=N1,0%
O=C(Nc1cccc(Cl)c1N1CCCC1)c1cc2ccccc2o1,3%
O=C=NC1CCCCC1,-3%&-3%
COC(=O)COC(=O)CC(CC(N)=O)c1ccccc1 (centres undefined),0%
Cn1c(NC(=O)c2ccco2)c(-c2ccccc2Cl)c(=O)c2ccccc21,0%
O=S(=O)(Nc1ccc2nc(C(F)(F)F)[nH]c2c1)c1ccccc1,-8%
Cc1cc(=O)[nH]c(SCC(=O)Nc2nc3c(s2)CCCC3)n1,-22%
COc1ccccc1CNc1ncnc2c1nnn2Cc1ccccc1,38%
CN(C)CCN1C(=O)c2oc3ccccc3c(=O)c2C1c1ccc(F)cc1 (centres undefined),1%
Cc1nc2cnc(OCc3ccccc3)nc2n(C)c1=O,8%
O=C1N/C(=N/c2ccccn2)SC1Cc1ccccc1 (centres undefined),-3%
O=C(COC(=O)c1ccc2c(c1)OCCO2)NCc1ccccc1,-6%
CC(=O)N1CCC(N(CCCOC(C)C)C(=O)Nc2ccc(Cl)cc2)CC1,92%
COc1ccccc1CNc1ncncc1-c1cccnc1,19%
COC(=O)CSc1nnc(CCc2nc3ccccc3[nH]2)n1C,-10%
Cc1cc(C)n(C(=O)c2ccc(C)c(S(=O)(=O)N3CCCC3)c2)n1,31%
C=CCn1c(SCC(=O)N2CCOCC2)nc(O)c(Cc2ccccc2)c1=O,0%
Cc1sc2nc(CSc3nnc(Cc4cccs4)n3C3CCCCC3)[nH]c(=O)c2c1C,15%
CC(=O)Nc1ccc(-c2cc(NC(C)=O)n(-c3ccccc3)n2)cc1,-10%
COc1ncc2nc(-c3ccc(Cl)cc3)c(=O)n(CCC#N)c2n1,5%
COc1ccc(C(=O)NCCc2ccc(S(N)(=O)=O)cc2)cc1OC,-12%
O=C(c1cccc(-n2cnnn2)c1)N1CC=C(c2ccccc2)CC1,55%
COC(=O)c1ccccc1Nc1ccccc1,-8%
CC(=O)N1CCC[C@@]2(CCN(Cc3ccc(C#N)cc3)C2)C1,12%

# Additional structures follow:
SMILES,AmpC inh no det
COCCCn1c(SCC(=O)NC2CCCC2)nnc1-c1ccco1,13%
Cc1ccc(C)c(NC(=O)CC(NCCCN2CCOCC2)C(=O)O)c1 (centres undefined),3%
CC1(C)NC(=O)N(CC(O)CN2C(=O)CCC2=O)C1=O (centres undefined),-8%
COc1ccccc1-c1cncnc1NCc1cccs1,8%
Cn1c(=O)[nH]c2cc3ccccc3cc21,-22%
COc1ccc(CNC(=O)COC(=O)c2n[nH]c3ccccc23)cc1OC,19%
Cc1ccc(C(=O)OCC(=O)Nc2ccccc2)cc1NC(=O)c1ccco1,-13%
COc1ccccc1NC(=O)c1ccc(-c2ccccc2F)o1,4%
Nn1c(SCC(=O)Nc2ccc(S(=O)(=O)N3CCCC3)cc2)nnc1C(F)(F)F,-9%
CCn1c(=O)cc(OCC(=O)Nc2nc(C)cs2)c2ccccc21,4%
O=C(Cn1cc(C(=O)c2ccccc2)c2ccccc21)NCc1ccco1,-8%
CC1(C)CC(=O)C=C(Nc2ccc(OCC(F)(F)C(F)F)cc2)C1,19%
CCC1CCCCN1C(=O)COC(=O)c1cc2ccccc2cc1O (centres undefined),33%
CN(C)c1nc(N(C)C)nc(N(C)C)n1,2%[12.8 µM]
Cc1onc(-c2ccccc2Cl)c1C(N)=O,-7%
COC(=O)c1ccc2ccn(CC(=O)NC(C)C)c2c1,-14%
Cc1ccc(-c2noc(CCC(=O)Nc3ccccc3C)n2)cc1,5%
COC(=O)C1=C(C)N=C2SCCC(=O)N2C1c1cc(Br)ccc1OC (centres undefined),63%
Cc1ccccc1-c1nc(CN2CCC(C(=O)NCCCN3CC(C)CC(C)C3)CC2)c(C)o1 (centres undefined),34%
CCOc1ccccc1NC(=O)c1cc(CC(C)C)oc1C,4%
CC(=O)NCCNc1nc(-c2ccccc2C(F)(F)F)nc2ccccc12,29%
COC(=O)c1cccc(COC(=O)c2ccccc2NC(=O)c2ccco2)c1,2%
COc1ccc(-c2nc(C#N)c(NCc3ccc(C)cc3)o2)cc1OC,64%
COCCCNC(=O)C1CCN(c2ncccn2)CC1,-1%
Clc1ccc2nc3ccccn3c2c1,-3%
O=C(Cn1cnc2c(nnn2-c2ccccc2)c1=O)N1CCCc2ccccc21,20%
COC(=O)Nc1c(C)n(C)n(-c2ccccc2)c1=O,2%
Cc1nnc(NC(=O)c2sc3ccccc3c2Cl)s1,-2%
Cc1cccc(-c2nnc3sc(-c4ccccc4C)nn23)c1,98%
O=c1ccc2cc(S(=O)(=O)N3CCN(c4ccccc4)CC3)ccc2o1,-1%
OCC1(C2=NOC(O)(C(F)(F)F)C2)CCCCC1 (centres undefined),0%
CC(=O)N1CCN=C1SCc1ccc(Br)cc1,27%
Cc1cc(Nc2ccccc2Br)n2nc(C)nc2n1,4%
Cc1csc(SCc2c(C(=O)O)oc3ccccc23)n1,-22%
CCCCC(=O)NCc1ccc2c(c1)cc(C)n2C,17%
Cc1ccc(S(=O)(=O)Nn2c(C)ccc2C)cc1,-13%

# Only part of the results is shown; the hit share may differ from the screen's.
